Screening data (PubChem)
EPAC1 ag val – validation of human EPAC1 agonists. O95398. EPAC1 Rap1b BODIPY-GDP exchange, fluorescence. Potency, µM, for inactives: max response, positive = active, hits mostly activators. actives 1% (n = 16,000); active = well fitted activation curve with a large enough effect; inconclusive = small, poorly fitted or top-dose-only effect; inactive = no such curve, though single readings can be large or run the other way;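 note: nearly all actives have a fitted effect of over 70% in size; series mostly up to about 76 or 150 µM; scaled to a cAMP control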
Target sequence (O95398 whole entry, looked up): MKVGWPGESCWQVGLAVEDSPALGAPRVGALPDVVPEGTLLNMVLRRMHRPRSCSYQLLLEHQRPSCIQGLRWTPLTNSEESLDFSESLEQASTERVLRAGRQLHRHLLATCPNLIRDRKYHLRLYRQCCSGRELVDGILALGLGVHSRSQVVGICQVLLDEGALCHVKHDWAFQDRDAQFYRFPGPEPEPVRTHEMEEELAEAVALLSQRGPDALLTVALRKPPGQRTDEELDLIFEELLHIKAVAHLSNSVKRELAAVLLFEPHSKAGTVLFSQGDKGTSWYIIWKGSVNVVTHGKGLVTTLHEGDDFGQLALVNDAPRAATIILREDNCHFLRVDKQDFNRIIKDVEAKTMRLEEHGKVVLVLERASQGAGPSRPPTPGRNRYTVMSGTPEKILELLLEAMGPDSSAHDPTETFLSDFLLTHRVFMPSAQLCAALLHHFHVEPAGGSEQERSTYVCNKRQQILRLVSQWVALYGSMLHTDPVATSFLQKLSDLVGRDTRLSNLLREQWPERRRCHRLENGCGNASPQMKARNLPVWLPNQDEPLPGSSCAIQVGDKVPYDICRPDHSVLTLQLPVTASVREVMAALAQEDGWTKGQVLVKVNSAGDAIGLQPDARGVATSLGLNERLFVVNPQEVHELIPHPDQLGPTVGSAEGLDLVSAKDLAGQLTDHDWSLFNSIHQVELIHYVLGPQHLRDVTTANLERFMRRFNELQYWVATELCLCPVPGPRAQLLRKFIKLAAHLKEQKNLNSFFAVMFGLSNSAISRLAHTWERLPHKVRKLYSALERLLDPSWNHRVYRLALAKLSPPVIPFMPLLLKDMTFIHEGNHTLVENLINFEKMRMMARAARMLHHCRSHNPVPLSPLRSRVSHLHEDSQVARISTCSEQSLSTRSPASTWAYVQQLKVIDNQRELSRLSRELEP
The depositor's hits bear a star; u = inconclusive; & = joins results of further samples; [ ] = remark or other dose. % is set by controls: 0 for no effect and ±100 for the full control effect; potency is the fitted concentration of half-maximal effect. The list is partial, so the mix of outcomes need not match the whole.

The opening 5 records, ahead of the listing:
SMILES	EPAC1 ag val
CC1CC[C@@]23CCC4(C)[C@@]5(C)CCC6C(C)(C)C(=O)CC[C@@]6(C)C5C=C[C@@]4(OC2=O)C3C1C (stereo not given in full)	-26%
O=C(c1cccc(F)c1)N1CCC2(CCCN(Cc3nccs3)C2)CC1	-42%[inhibitor]
COc1ccc(C(=O)N2CCC3(CCCN(Cc4cc(C(F)(F)F)cc(C(F)(F)F)c4)C3)CC2)cc1	-78%[inhibitor]
CC(C)Oc1ccc2c(=O)c(-c3ccccc3)coc2c1	-70%&-31%[inhibitor]
COc1cc(=O)n2c(c1C(=O)NC(C)c1ccco1)CCN(CC=C(C)C)CC2 (stereo not given)	20%

This part in full, from the start:
SMILES	EPAC1 ag val
CC1CC[C@@]23CCC4(C)[C@@]5(C)CCC6C(C)(C)C(=O)CC[C@@]6(C)C5C=C[C@@]4(OC2=O)C3C1C (stereo not given in full)	-26%
O=C(c1cccc(F)c1)N1CCC2(CCCN(Cc3nccs3)C2)CC1	-42%[inhibitor]
COc1ccc(C(=O)N2CCC3(CCCN(Cc4cc(C(F)(F)F)cc(C(F)(F)F)c4)C3)CC2)cc1	-78%[inhibitor]
CC(C)Oc1ccc2c(=O)c(-c3ccccc3)coc2c1	-70%&-31%[inhibitor]
COc1cc(=O)n2c(c1C(=O)NC(C)c1ccco1)CCN(CC=C(C)C)CC2 (stereo not given)	20%
N#CCCn1c(=O)c(-c2ccc(Cl)cc2)nc2cnc(Oc3cccc(Cl)c3)nc21	-42%[inhibitor]
CCCN(CCC)CCc1cccc2c1CC(=O)N2	-4%&19%
Oc1ccc(Cl)c2c1CCC2	-18%
Cc1oc(-c2ccccc2NS(C)(=O)=O)nc1CN(C)Cc1ccc(Cl)cc1	20%
Cc1ccccc1-c1cc(N2CCN(C)CC2)ncn1	-42%[inhibitor]
COc1ccc(CN2CC[C@H]3C=CC[C@@H](C(=O)NCc4cccnc4)[C@H]3C2=O)cc1OC	25%
CCCCC[C@H]1CN(Cc2ccccc2)C(=O)[C@@H]1CC(=O)NCc1ccccc1	-86%[inhibitor]
Cc1ccc2[nH]cc(C(O)c3c[nH]c4ccc(C)cc34)c2c1	u
CCCC(O)C(CC)CO (stereo not given)	-11%
COc1ccc(NC(=O)N2CC3(CCN(C(=O)c4ccco4)CC3)C2)cc1	8%
CCc1nc2cc(C(=O)N3CCC[C@H]3CO)cc(NC(=O)c3ccccc3OC)c2n1C	5%
CCCCCCCC(=O)OCC(COC(=O)CCCCCCC)OC(=O)CCCCCCC	-28%
COc1ccc(-c2nc3cnc(N(C)C)nc3n(C)c2=O)cc1	-46%[inhibitor]
CC[C@@H]1[C@H]2CCCC(=O)N3CC[C@@H](C[C@@H]1OC(=O)Nc1ccc4c(c1)OCO4)[C@@H]23	-42%[inhibitor]
COc1ccc2[nH]cc(CCNc3cc(-c4ccc(C(=O)N(C)C)cc4)ncn3)c2c1	-35%[inhibitor]
Cc1ccccc1-c1nc(N(C)Cc2ccco2)c2ccccc2n1	u
CCCCc1ccc2nc(NC(=O)OC)[nH]c2c1	-18%
O=c1[nH]cc(F)c(=O)[nH]1	1%&-4%&-5%
COc1ccccc1-c1cc(NCc2cccs2)ncn1	0%
COc1ccccc1C1CN(CCNC(=O)c2cnsn2)Cc2ccccc2O1 (stereo not given)	22%
CC(C)c1c(C(=O)NC(c2cccnc2)C(F)(F)F)cnn1-c1nccc(-c2cccs2)n1 (stereo not given)	4%
COc1cccc2c1C(=O)c1c(O)c3c(c(O)c1C2=O)C[C@@](O)(C(=O)CO)C[C@@H]3O[C@H]1C[C@H](N)[C@H](O)[C@H](C)O1	u
COc1ccccc1CN1CC[C@@]2(CCCN(C(=O)c3ccco3)C2)C1	u
OC1CCN(Cc2ccc3c(c2)CN(Cc2ccc(Oc4ncccn4)cc2)CCO3)CC1	-2%
c1ccc(-c2ccc(N3CC4(CCNCC4)C3)cc2)cc1	-20%
CC(=O)OC1CC2C(C)(C)C(O)CCC2(C)C2CC[C@]3(C)C(=CC(=O)OC3c3ccoc3)C12C (stereo not given in full)	-21%
Cc1noc(C)c1-c1nc(N2CCNCC2)c2ccccc2n1	0%
CCn1c(-c2ccccc2F)nc2cc(NC(C)=O)cc(C(=O)N(C)Cc3ccccn3)c21	-15%
COc1c(OC)c2occc2c2oc(=O)ccc12	-3%
COc1cc2c(cc1OC)-c1c(OC)c(OC)cc3ccnc(c13)C2=O	11%
c1cnc(N2CCN(Cc3ccc4c(c3)OCO4)CC2)nc1	13%&8%&8%
C[C@@H]1CCN(C(=O)[C@H](CCCN=C(N)N)NS(=O)(=O)c2cccc3c2NC[C@H](C)C3)[C@@H](C(=O)O)C1	-11%
CC(C)O	-14%
O=S(=O)(c1ccccc1)N1CCC[C@@]2(CCN(Cc3cc(C(F)(F)F)cc(C(F)(F)F)c3)C2)C1	9%
c1ccc(Nc2nc(-c3ccoc3)nc3ccccc23)cc1	-2%
Cc1cc(C)n(-c2cccc(C(=O)NCC3Cc4cccc(-c5ccccn5)c4O3)c2)n1 (stereo not given)	0%
C=CCCCCCCCCCCCC(O)CC(O)COC(C)=O (stereo not given) (tested in a mixture with another compound)	-56%[inhibitor]
Cc1nnc(C(=O)NC(C)(C)c2nc(C(=O)NCc3ccc(F)cc3)c(O)c(=O)n2C)o1	9%
CN(C)c1ccc(C=O)cc1[N+](=O)[O-]	30%
O=C(c1ccncc1)N1CCC2(CCN(Cc3cc(C(F)(F)F)cc(C(F)(F)F)c3)CC2)CC1	-125%[inhibitor]
COc1ccc(-c2oc3ccccc3c(=O)c2O)cc1OC	6%
CCCCNC(=O)[C@@H]1CC=C[C@@H]2CCN(Cc3ccc(OC)c(OC)c3)C(=O)[C@@H]21	-18%
CCOC(=O)N1CCN(Cc2ccc3c(c2)CN(C(=O)c2noc4c2CCCC4)CCO3)CC1	0%
COC(=O)[C@H]1[C@H]2C[C@@H]3c4[nH]c5ccccc5c4CCN3C[C@H]2C[C@@H](OC(=O)c2cc(OC)c(OC)c(OC)c2)[C@@H]1OC	-86%&-65%[inhibitor]
N[C@@H]1CCN(O)C1=O	0%
COc1ccc(F)c(CN2CCOc3ccc(CN4CCCCC4CO)cc3C2)c1 (stereo not given)	-7%
Cc1ncc([N+](=O)[O-])n1CC(O)CCl (stereo not given)	10%
COc1ccc(-c2nc3cnc(N4CCOCC4)nc3n(-c3ccccc3)c2=O)cc1	-1%
Cn1cnnc1Sc1ccc(CN2CCOc3ccc(C4=Cc5ccccc5CC4)cc3C2)o1	21%
Cc1cc(O)c2ccccc2c1O	-9%
CC(=O)O[C@@]1(C(C)=O)CCC2C3C=C(Cl)C4=CC(=O)CC[C@]4(C)C3CC[C@]21C (stereo not given in full)	22%
Cc1cnc(CNc2nc(-c3ccccc3C)nc3ccccc23)cn1	-15%
COc1ccccc1C1OC(=O)CC1C(=O)OC[C@@H]1CCCN2CCCCC12 (stereo not given in full)	1%
O=C(NCC1Cc2cc(F)cc(-c3cnccn3)c2O1)c1cccc(Cl)c1 (stereo not given)	14%
COc1cc(-c2ccc(C)cc2)cc2c1OCCN(C(=O)CCn1ccc(C)n1)C2	0%

Next structures:
SMILES	EPAC1 ag val
COc1ccccc1CNc1cc(-c2ccccc2CN(C)C)ncn1	-35%[inhibitor]
Cc1noc(C)c1-c1cc(Nc2ccccc2)ncn1	-35%[inhibitor]
CC(C)NC(=O)N1CCC2(CC1)CCN(C(=O)c1csnn1)CC2	-27%
COC(=O)CC1C(C)(C)C(OC(C)=O)C2CC3C4CC(=O)OC(c5ccoc5)[C@]4(C)CCC3[C@@]1(C)C2=O (stereo not given in full)	u
O=C(O)C1CCN(c2ncnc3ccc(-c4ccccc4C(F)(F)F)cc23)CC1	-7%
Cc1c(CCO)sc[n+]1CCc1ccccc1	1%
O=C(NCCN1Cc2ccccc2OC(c2ccccc2F)C1)c1cncs1 (stereo not given)	-4%
CC(=O)N1CCC2(CC1)CCN(c1ccccc1)CC2	-78%[inhibitor]
COc1ccccc1CCn1c(=O)c(-c2cn(C)c3ccccc23)nc2cncnc21	13%
C=C[C@](C)(O)CCC=C(C)C	-2%
O=c1c(-c2ccc(F)cc2)nc2cnc(N3CCOCC3)nc2n1Cc1cccs1	-16%
C[C@@H](C(=O)O)c1ccc(-c2ccccc2)c(F)c1	2%
CCCCCCCCCCCCCCCC(=O)N[C@H](CN1CCOCC1)[C@H](O)c1ccccc1	-37%[inhibitor]
C[C@]12C=CC(=O)C=C1CC[C@@H]1[C@@H]2C(=O)C[C@@]2(C)[C@H]1CC[C@]2(O)C(=O)CO	u
COc1cccc(C(=O)NCC2Cc3c(F)ccc(-c4ncccn4)c3O2)c1OC (stereo not given)	-2%
N#Cc1ccc(CN2CC3(CCN(C(=O)c4cccc(F)c4)CC3)C2)cc1	17%
Cc1cc2c(c(-c3ccc(Cl)cc3)c1)OC(CNC(=O)Cc1c(C)noc1C)C2 (stereo not given)	-13%
Nc1c(CC(=O)O)cccc1C(=O)c1ccc(Br)cc1	-17%
COc1cccc(CN2CCOc3ccc(C(O)c4cccnc4)cc3C2)c1 (stereo not given)	9%
O=C([C@@H]1C[C@@H](Sc2nc3ccccc3[nH]2)CN1Cc1c(F)cccc1F)N1CCOCC1	-9%
COc1cc(OC)c(OC)cc1CN1CCCC(n2cc(C(=O)N3CCCCC3)nn2)C1 (stereo not given)	-23%
COc1ncc2nc(-c3cn(C)c4ccccc34)c(=O)n(-c3ccccc3)c2n1	-19%
CCCCCCCCCCCCCCCCCCCCCCO	-12%
Fc1ccc(C(c2ccc(F)cc2)N2CCN(C/C=C/c3ccccc3)CC2)cc1	u
CCCCCCCCCCCCCCCCOCC(CO)OC(C)=O (stereo not given)	-33%
COc1ccc2c3c1O[C@H]1C[C@H](O)C=C[C@@]31CCN(C)C2	-3%
Cc1onc(-c2ccccc2)c1C(=O)N[C@@H]1C(=O)N2[C@@H](C(=O)O)C(C)(C)S[C@@H]12	22%
CCCCCCCC/C=C\C/C=C\C/C=C\CCCC(=O)NCCO	-33%[inhibitor]
CCCC1([C@H](O)C/C=C/[C@H]2[C@H](O)CC(=O)[C@@H]2CCCCCCC(=O)OC)CCC1	-191%[inhibitor]
CC(=O)N1CCC2(CCCN(Cc3ccccc3)C2)CC1	-56%[inhibitor]
O=P(O)(O)C(Sc1ccc(Cl)cc1)P(=O)(O)O	7%
COCCn1c(=O)c(CCc2ccccc2)nc2cnc(Nc3cccc(OC)c3)nc21	112µM*
COCC(=O)N1CCC2(CC1)CCN(C(=O)Nc1cccc(F)c1)CC2	-35%[inhibitor]
CC[C@H](C)[C@H](NC(=O)OCC1c2ccccc2-c2ccccc21)C(=O)O	-7%
O=c1ccn([C@@H]2O[C@H](CO)[C@@H](O)[C@H]2O)c(=O)[nH]1	-12%
Oc1cc(-c2cccs2)cc2c1OCCN(Cc1cn[nH]c1-c1ccc(Cl)cc1)C2	23%
COc1cccc(C(=O)NCC2Cc3cccc(-c4nc(C)cnc4C)c3O2)c1OC (stereo not given)	8%

An excerpt from above in order of molecular weight, smallest number first.
SMILES	EPAC1 ag val
C=C[C@](C)(O)CCC=C(C)C	-2%
O=c1ccn([C@@H]2O[C@H](CO)[C@@H](O)[C@H]2O)c(=O)[nH]1	-12%
Cc1c(CCO)sc[n+]1CCc1ccccc1	1%
CC(=O)N1CCC2(CC1)CCN(c1ccccc1)CC2	-78%[inhibitor]
CC(=O)N1CCC2(CCCN(Cc3ccccc3)C2)CC1	-56%[inhibitor]
COc1ccc2c3c1O[C@H]1C[C@H](O)C=C[C@@]31CCN(C)C2	-3%
O=P(O)(O)C(Sc1ccc(Cl)cc1)P(=O)(O)O	7%
CCCCCCCCCCCCCCCCCCCCCCO	-12%
Nc1c(CC(=O)O)cccc1C(=O)c1ccc(Br)cc1	-17%
CCCCCCCC/C=C\C/C=C\C/C=C\CCCC(=O)NCCO	-33%[inhibitor]
CC[C@H](C)[C@H](NC(=O)OCC1c2ccccc2-c2ccccc21)C(=O)O	-7%
C[C@]12C=CC(=O)C=C1CC[C@@H]1[C@@H]2C(=O)C[C@@]2(C)[C@H]1CC[C@]2(O)C(=O)CO	u
CCCCCCCCCCCCCCCCOCC(CO)OC(C)=O (stereo not given)	-33%
N#Cc1ccc(CN2CC3(CCN(C(=O)c4cccc(F)c4)CC3)C2)cc1	17%
COc1cccc(CN2CCOc3ccc(C(O)c4cccnc4)cc3C2)c1 (stereo not given)	9%
COc1ncc2nc(-c3cn(C)c4ccccc34)c(=O)n(-c3ccccc3)c2n1	-19%
O=C(NCCN1Cc2ccccc2OC(c2ccccc2F)C1)c1cncs1 (stereo not given)	-4%
O=C(O)C1CCN(c2ncnc3ccc(-c4ccccc4C(F)(F)F)cc23)CC1	-7%
Fc1ccc(C(c2ccc(F)cc2)N2CCN(C/C=C/c3ccccc3)CC2)cc1	u
COc1cccc(C(=O)NCC2Cc3c(F)ccc(-c4ncccn4)c3O2)c1OC (stereo not given)	-2%
COc1ccccc1CCn1c(=O)c(-c2cn(C)c3ccccc23)nc2cncnc21	13%
COc1cccc(C(=O)NCC2Cc3cccc(-c4nc(C)cnc4C)c3O2)c1OC (stereo not given)	8%
O=c1c(-c2ccc(F)cc2)nc2cnc(N3CCOCC3)nc2n1Cc1cccs1	-16%
COCCn1c(=O)c(CCc2ccccc2)nc2cnc(Nc3cccc(OC)c3)nc21	112µM*
Oc1cc(-c2cccs2)cc2c1OCCN(Cc1cn[nH]c1-c1ccc(Cl)cc1)C2	23%
COc1cc(OC)c(OC)cc1CN1CCCC(n2cc(C(=O)N3CCCCC3)nn2)C1 (stereo not given)	-23%
O=C([C@@H]1C[C@@H](Sc2nc3ccccc3[nH]2)CN1Cc1c(F)cccc1F)N1CCOCC1	-9%
CCCCCCCCCCCCCCCC(=O)N[C@H](CN1CCOCC1)[C@H](O)c1ccccc1	-37%[inhibitor]
